From PubChem
YB-1 expression = YB-1 expression inhibition | delta delta Cp (YB-1 minus CDIP) (no concentration beside the values) | U2OS, qRT-PCR YB-1 vs CDIP delta delta Cp, 16 h; active compounds read high; zero = DMSO, each unit about twofold | 30,000 tested, 0.37% active;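 active means delta delta Cp rounded down to an integer at or above 3, about 3 SD of DMSO wells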;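 further: higher means less YB-1 transcript or more CDIP transcript relative to DMSO; stock transfer was 100 nL into about 100 µL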
* hit, by the source's call.

SMILES	YB-1 expression
C[C@@H]1CN([C@@H](C)CO)C(=O)CCCn2nncc2CO[C@H]1CN(C)S(=O)(=O)c1ccc(Oc2ccccc2)cc1	-0.039
C=CC[C@]12N=C(c3ccc(OCCCO)cc3)O[C@H]1c1ccccc1CN(C(=O)c1ccccc1)C2=O	-0.11
O=C(O)CCCCCCC(=O)N/N=C/CCC1CCCCC1	-0.37
C[C@H]1CN([C@@H](C)CO)C(=O)CCCn2nncc2CO[C@@H]1CN(C)Cc1ccccc1	-0.14
C[C@H](CO)N1C[C@H](C)[C@H](CN(C)C)Oc2ncc(-c3ccc(F)cc3)cc2C1=O	0.068
CCCN(C)C[C@@H]1Oc2ncc(-c3cc4ccccc4o3)cc2C(=O)N([C@H](C)CO)C[C@@H]1C	-0.26
C[C@@H]1CN([C@@H](C)CO)C(=O)CCCn2nncc2CO[C@@H]1CN(C)C(=O)OCc1ccccc1	-0.077
C=CCNC(=O)[C@@H]1[C@H]2C(=O)O[C@H](c3ccccc3)[C@H](c3ccccc3)N2[C@H](c2ccc(OCCO)cc2)[C@@]12C(=O)Nc1ccc(C#CC3(O)CCCCCC3)cc12	-0.17
Cc1cccc(CN(C)C[C@H]2OCc3cn(nn3)CCCC(=O)N([C@@H](C)CO)C[C@H]2C)c1	0.095
CC(C)N1C(=O)[C@@]2(Cc3ccccc31)c1ccccc1C(=O)N(Cc1ccccc1)[C@H]2c1ccc(CO)cc1	-0.19
COC(=O)C(CC#Cc1ccc2c(c1)[C@]1(C(=O)N2)[C@H](c2ccccc2OCCO)N2[C@H](c3ccccc3)[C@H](c3ccccc3)OC(=O)[C@H]2[C@@H]1C(=O)N1CCN(c2ncccn2)CC1)C(=O)OC	-0.15
Cc1noc(C)c1NC(=O)N(C)C[C@@H]1Oc2ccc(NC(=O)CCCCCC(=O)Nc3ccccc3N)cc2C(=O)N([C@@H](C)CO)C[C@@H]1C	0.073
O=C1O[C@H](c2ccccc2)[C@H](c2ccccc2)N2[C@H]1[C@@H](C(=O)N1CCN(c3ncccn3)CC1)[C@]1(C(=O)Nc3ccccc31)[C@H]2c1ccccc1OCCO	-0.21
O=C1O[C@@H](c2ccccc2)[C@@H](c2ccccc2)N2[C@@H](c3ccc(OCCO)cc3)[C@]3(C(=O)Nc4ccc(C#CC5(O)CCCCCC5)cc43)[C@@H](C(=O)N3CCCCCCC3)[C@H]12	-0.34
CN(C)CCCCNC(=O)[C@@H]1C[C@@H]2C(=O)N[C@@H](Cc3ccccc3)C(=O)N2[C@@H]1c1ccc(O)cc1	-0.17
CC(C)C[C@@H]1NC(=O)[C@@H]2C[C@H](C(=O)NCCCCCCN(C)C)[C@H](c3ccc(O)cc3)N2C1=O	-0.19
C[C@H](CO)N1C[C@H](C)[C@H](CN(C)Cc2cccc(C(F)(F)F)c2)Oc2ncc(-c3ccc(F)cc3)cc2C1=O	0.35
O=C(CCCCCCC(=O)Nc1ccccc1O)N/N=C/c1cc2c(cc1Br)OCO2	-0.18
C[C@H]1CN([C@@H](C)CO)C(=O)CCCn2nncc2CO[C@H]1CN(C)C(=O)Nc1ccc(N2CCCCC2)cc1	-0.096
CCOc1cc(/C=N/NC(=O)c2ccccc2O)ccc1O	0.22
C[C@H](CO)N1C[C@H](C)[C@@H](CN(C)C(=O)c2ccc(N3CCN(C)CC3)cc2)OCc2cnnn2CCCC1=O	-0.067
COC(=O)CCCCCCC(=O)N/N=C/c1cc(OC)ccc1O	0.14
COc1ccc(CN(C)C[C@@H]2OCc3cnnn3CCCC(=O)N([C@H](C)CO)C[C@H]2C)cc1	0.2
O=S(=O)(N[C@H]1CCN(Cc2ccc(OCCO)cc2)C1)c1cc(C(F)(F)F)ccc1Cl	-0.38
COc1ccccc1S(=O)(=O)N(C)C[C@H]1OCc2cn(nn2)CCCC(=O)N([C@H](C)CO)C[C@H]1C	0.37
C=CCN1Cc2ccccc2[C@@H]2OC(c3ccc(OCCCO)cc3)=N[C@]2(Cc2ccccc2)C1=O	0.024
C[C@H](CO)N1C[C@H](C)[C@H](CN(C)C(=O)Nc2ccnc(N3CCOCC3)c2)OCc2cn(nn2)CCCC1=O	-0.25
C[C@H](CO)N1C[C@H](C)[C@@H](CN(C)CC2CCCC2)OCc2cn(nn2)CCCC1=O	0.46
CCCCCCC/C=N/NC(=O)CCCCCCC(=O)O	0.049
C[C@@H]1CN([C@@H](C)CO)C(=O)CCCn2cc(nn2)CO[C@@H]1CN(C)Cc1ccc(-c2ccccc2)cc1	-0.53
C[C@H](CO)N1C[C@H](C)[C@H](CN(C)C(=O)OCc2ccccc2)OCc2cnnn2CCCC1=O	0.13
O=C(CCCCCCC(=O)Nc1ccccc1O)N/N=C/c1ccc(-n2ccnc2)cc1	-0.12
N#Cc1ccc(/C=N/NC(=O)CCCCC(=O)NO)cc1	-0.44
C=CC[C@@]12N=C(c3ccc(OCCCO)cc3)O[C@@H]1c1ccccc1CN(CCS(=O)(=O)c1ccccc1)C2=O	-0.31
C=CCNC(=O)[C@H]1[C@@H]2C(=O)O[C@@H](c3ccccc3)[C@@H](c3ccccc3)N2[C@@H](c2ccccc2OCCO)[C@]12C(=O)Nc1ccc(C#CCC(C(=O)OC)C(=O)OC)cc12	-0.41
COCCOC(=O)N1C(=O)[C@@]2(c3ccccc31)[C@H](C(N)=O)[C@H]1C(=O)O[C@H](c3ccccc3)[C@H](c3ccccc3)N1[C@@H]2c1ccccc1OCCO	-0.25
O=C(O)CCCCCCC(=O)N/N=C/c1ccc(O)cc1Br	-0.26
CO[C@H]1O[C@H](CO)[C@@H](OC(=O)Nc2ccc3c(c2)OCO3)[C@@H]2OC(=O)[C@H](Cc3ccccc3)C/C=C/C[C@@H](Cc3ccccc3)C(=O)O[C@@H]12	-0.086
O=C1O[C@@H](c2ccccc2)[C@@H](c2ccccc2)N2[C@@H](c3ccccc3OCCO)[C@]3(C(=O)Nc4ccc(C#CC5=CCCCC5)cc43)[C@@H](C(=O)N3CCCCCCC3)[C@H]12	-0.59
COc1cc(/C=N/NC(=O)c2ccccc2O)ccc1O	-0.016
Cc1cccc(CN(C)C[C@@H]2Oc3ncc(-c4cc5ccccc5o4)cc3C(=O)N([C@H](C)CO)C[C@@H]2C)c1	0.29
COC(=O)CCCCCCC(=O)N/N=C/c1cccc(Br)c1	-0.14
Cc1noc(C)c1NC(=O)N(C)C[C@@H]1OCc2cn(nn2)CCCC(=O)N([C@@H](C)CO)C[C@@H]1C	0.24
COc1cc(Cl)c(/C=N/NC(=O)c2ccccn2)c(Cl)c1OC	-0.65
C[C@H](CO)N1C[C@H](C)[C@H](CN(C)S(=O)(=O)c2ccc(C#N)cc2)Oc2ncc(C#CC(C)(C)O)cc2C1=O	0.32

Sorted by SMILES length (falling): part of the list above
SMILES	YB-1 expression
CO[C@H]1O[C@H](CO)[C@@H](OC(=O)Nc2ccc3c(c2)OCO3)[C@@H]2OC(=O)[C@H](Cc3ccccc3)C/C=C/C[C@@H](Cc3ccccc3)C(=O)O[C@@H]12	-0.086
COCCOC(=O)N1C(=O)[C@@]2(c3ccccc31)[C@H](C(N)=O)[C@H]1C(=O)O[C@H](c3ccccc3)[C@H](c3ccccc3)N1[C@@H]2c1ccccc1OCCO	-0.25
C[C@H](CO)N1C[C@H](C)[C@H](CN(C)S(=O)(=O)c2ccc(C#N)cc2)Oc2ncc(C#CC(C)(C)O)cc2C1=O	0.32
Cc1noc(C)c1NC(=O)N(C)C[C@@H]1OCc2cn(nn2)CCCC(=O)N([C@@H](C)CO)C[C@@H]1C	0.24
C[C@H](CO)N1C[C@H](C)[C@H](CN(C)C(=O)OCc2ccccc2)OCc2cnnn2CCCC1=O	0.13
COc1cc(Cl)c(/C=N/NC(=O)c2ccccn2)c(Cl)c1OC	-0.65
COC(=O)CCCCCCC(=O)N/N=C/c1cccc(Br)c1	-0.14

The listing picks up, starting 2 compounds before the break.
SMILES	YB-1 expression
COc1cc(Cl)c(/C=N/NC(=O)c2ccccn2)c(Cl)c1OC	-0.65
C[C@H](CO)N1C[C@H](C)[C@H](CN(C)S(=O)(=O)c2ccc(C#N)cc2)Oc2ncc(C#CC(C)(C)O)cc2C1=O	0.32
C[C@@H]1CN([C@H](C)CO)C(=O)CCCn2nncc2CO[C@@H]1CN(C)C(=O)Nc1ccc(N2CCCCC2)cc1	0.073
O=C(N/N=C/c1cc(Br)cs1)c1ccccc1O	0.0011
O=C(O)CCCCCC(=O)N/N=C/c1cc(Br)c(O)c(Br)c1	0.35
C[C@@H]1CN([C@@H](C)CO)C(=O)CCCn2cc(nn2)CO[C@H]1CN(C)S(=O)(=O)c1cccs1	-0.24
COc1ccccc1NC(=O)N(C)C[C@@H]1OCc2cn(nn2)CCCC(=O)N([C@@H](C)CO)C[C@@H]1C	-0.22
C=CCN1C(=O)[C@@]2(O[C@@H](CCn3cc([C@H](O)c4ccccc4)nn3)[C@H]([Si](C)(C)c3ccc(OC)cc3)[C@H]2C)c2cc(N3C(=O)c4cccc5cccc3c45)ccc21	0.11
COc1cc2c(cc1OC)CN(C(=O)[C@@H]1[C@H]3C(=O)O[C@H](c4ccccc4)[C@H](c4ccccc4)N3[C@H](c3ccccc3OCCO)[C@@]13C(=O)Nc1ccc(C#CC4(O)CCCCCC4)cc13)CC2	0.21
C[C@@H]1CN([C@H](C)CO)C(=O)CCCn2nncc2CO[C@H]1CN(C)S(=O)(=O)c1ccc(Cl)cc1	0.24
COc1ccccc1S(=O)(=O)N(C)C[C@H]1OCc2cn(nn2)CCCC(=O)N([C@@H](C)CO)C[C@@H]1C	0.031
COc1cccc(NC(=O)N(C)C[C@H]2OCc3cnnn3CCCC(=O)N([C@@H](C)CO)C[C@H]2C)c1	-0.2
COc1cc(O)cc(OC)c1/C=N/NC(=O)CCCCC(=O)NO	0.32
COC(=O)CCCCCCC(=O)N/N=C/c1ccccc1C	0.047
C=CCNC(=O)[C@@H]1[C@H]2C(=O)O[C@H](c3ccccc3)[C@H](c3ccccc3)N2[C@H](c2ccc(OCCO)cc2)[C@@]12C(=O)Nc1ccc(C#CC3=CCCCC3)cc12	-0.2
C=CCOC(=O)[C@H]1[C@@H]2C(=O)O[C@@H](c3ccccc3)[C@@H](c3ccccc3)N2[C@@H](c2ccc(OCCOC(=O)[C@H]3C[C@H]4C(=O)N5CCC[C@H]5C(=O)N4[C@H]3c3cccc(OCCO)c3)cc2)[C@]12C(=O)Nc1ccccc12	0.15
COc1cc2c(cc1OC)CN(C(=O)[C@H]1[C@@H]3C(=O)O[C@@H](c4ccccc4)[C@@H](c4ccccc4)N3[C@@H](c3ccccc3OCCO)[C@]13C(=O)Nc1ccc(C#CC4(O)CCCCCC4)cc13)CC2	0.055

Single values from the entries so far:
Entry of COc1cc(O)cc(OC)c1/C=N/NC(=O)CCCCC(=O)NO under YB-1 expression: 0.32
Entry of O=C(N/N=C/c1cc(Br)cs1)c1ccccc1O under YB-1 expression: 0.0011
Entry of C=CCN1C(=O)[C@@]2(O[C@@H](CCn3cc([C@H](O)c4ccccc4)nn3)[C@H]([Si](C)(C)c3ccc(OC)cc3)[C@H]2C)c2cc(N3C(=O)c4cccc5cccc3c45)ccc21 under YB-1 expression: 0.11
Entry of COc1ccccc1S(=O)(=O)N(C)C[C@H]1OCc2cn(nn2)CCCC(=O)N([C@@H](C)CO)C[C@@H]1C under YB-1 expression: 0.031

Next results
SMILES	YB-1 expression
COC(=O)C(CC#Cc1ccc2c(c1)[C@]1(C(=O)N2)[C@H](c2ccc(O)cc2)N2[C@H](c3ccccc3)[C@H](c3ccccc3)OC(=O)[C@H]2[C@@H]1C(=O)N1CCc2cc(OC)c(OC)cc2C1)C(=O)OC	-0.57
COc1ccc([Si](C)(C)[C@H]2[C@H](CCO)O[C@@]3(C(=O)N(Cc4cccc(N5CCCCC5=O)c4)c4ccccc43)[C@@H]2C)cc1	0.25
CC(C)[C@@H]1C=C(C(=O)O)O[C@H](OCc2ccc(CO)cc2)C1	0.071
COC(=O)C(CC#Cc1ccc2c(c1)[C@]1(C(=O)N2)[C@H](c2ccc(OCCO)cc2)N2[C@H](c3ccccc3)[C@H](c3ccccc3)OC(=O)[C@H]2[C@@H]1C(=O)NC[C@H](O)c1ccccc1)C(=O)OC	0.24
COCCOC(=O)N1C(=O)[C@@]2(c3cc(C#CC4(O)CCCCCC4)ccc31)[C@H](C(=O)N1CCN(c3ncccn3)CC1)[C@H]1C(=O)O[C@H](c3ccccc3)[C@H](c3ccccc3)N1[C@@H]2c1ccccc1OCCO	0.036
C[C@@H]1CN([C@@H](C)CO)C(=O)CCCn2cc(nn2)CO[C@H]1CN(C)C(=O)Nc1cccc(Oc2ccccn2)c1	0.003
C[C@@H]1CN([C@@H](C)CO)C(=O)CCCn2nncc2CO[C@@H]1CN(C)S(=O)(=O)c1ccc(-n2cccn2)cc1	-0.24
C[C@H](CO)N1C[C@H](C)[C@@H](CN(C)C(=O)c2cc(-c3ccccc3)on2)OCc2cn(nn2)CCCC1=O	-0.33
C[C@H]1CN([C@@H](C)CO)C(=O)CCCn2nncc2CO[C@H]1CN(C)C(=O)Nc1cccc2ccccc12	0.4
O=C(NO)c1ccc(C(=O)N/N=C/c2ccc(O)cc2O)cc1	-0.39
C[C@H]1CN([C@@H](C)CO)C(=O)CCCn2cc(nn2)CO[C@@H]1CN(C)C(=O)NC1CCCC1	0.13
COCCOC(=O)N1C(=O)[C@@]2(c3ccccc31)[C@H](C(=O)N1CCN(c3ncccn3)CC1)[C@H]1C(=O)O[C@H](c3ccccc3)[C@H](c3ccccc3)N1[C@@H]2c1ccccc1OCCO	-0.23
CC(C)=CCC[C@@H](C)C/C=N/NC(=O)CCCCCCC(=O)O	-0.0044
C[C@@H]1CN([C@H](C)CO)C(=O)CCCn2nncc2CO[C@H]1CN(C)C(=O)Cc1ccccc1	-0.33
COC(=O)CCCCCCC(=O)N/N=C/c1ccc([N+](=O)[O-])c(O)c1	0.16
C[C@@H]1CN([C@@H](C)CO)C(=O)CCCn2cc(nn2)CO[C@@H]1CN(C)S(=O)(=O)c1ccccc1C#N	-0.12
C[C@H](CO)N1C[C@H](C)[C@@H](CN(C)S(=O)(=O)c2cccc(C#N)c2)OCc2cn(nn2)CCCC1=O	-0.095
CC(C)(C)OC(=O)NC1(/C=N/NC(=O)c2ccccn2)CCCC1	0.4
O=C(N/N=C/c1cc(I)cc(I)c1O)c1ccccc1O	0.3
NC(=O)COc1ccc(/C=N/NC(=O)c2cccc(C(=O)NO)c2)cc1	-0.0068
COc1cc2c(cc1O)C(c1cccs1)N(Cc1cccc(OC(F)(F)F)c1)CC2 (stereo not given)	0.53
O=C(N/N=C/c1cc(Br)ccc1O)c1ccccn1	-0.081

Some of the compounds tested; rates above refer to the full screens.
